# Screens from PubChem BioAssay.
# Vaccinia pol inh – vaccinia E9 polymerase processive synthesis inhibitors, primary screen, biochemical, absorbance; in vitro processive DNA synthesis, absorbance read-out; stronger effect = lower value; some inactives read as strong as hits; normalized absorbance, % (concentration not given with the values); actives 0.94% (n = 46,000); AID 493162, 2011;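 active means replicate mean up to 90% and picked by the depositor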;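 further: 100% = median of the test wells of a plate; 100 nL library stock went into each well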
# * hit, by the source's call; & = joins results of further samples.
cpd	Compound	Vaccinia pol inh
1	Cc1ccccc1OCC(O)CO (stereo not given)	94
2	COc1ccc(C(=O)c2ccccc2)c(O)c1	90
3	CCCOc1ccc2nc(NC(=O)OC)[nH]c2c1	101
4	N=c1nc(N2CCCCC2)cc(N)n1O	100&101
5	CN[C@@H]1[C@H](O)[C@H](NC)[C@H]2O[C@@]3(O)C(=O)C[C@@H](C)O[C@H]3O[C@@H]2[C@H]1O	97
6	CC(Cc1cccc(C(F)(F)F)c1)NCCOC(=O)c1ccccc1 (stereo not given)	93
7	COC(=O)c1ccccc1O	106
8	CCN(CCCCOC(=O)c1ccc(OC)c(OC)c1)C(C)Cc1ccc(OC)cc1 (stereo not given)	95

# Looked up one by one from the entries so far (two):
cpd	Compound	Vaccinia pol inh
8	CCN(CCCCOC(=O)c1ccc(OC)c(OC)c1)C(C)Cc1ccc(OC)cc1 (stereo not given)	95
6	CC(Cc1cccc(C(F)(F)F)c1)NCCOC(=O)c1ccccc1 (stereo not given)	93

# In the list so far, 2 contain nitrogen in an aromatic ring.
cpd	Compound	Vaccinia pol inh
3	CCCOc1ccc2nc(NC(=O)OC)[nH]c2c1	101
4	N=c1nc(N2CCCCC2)cc(N)n1O	100&101

# The main list resumes with the 3 entries that preceded the break.
cpd	Compound	Vaccinia pol inh
6	CC(Cc1cccc(C(F)(F)F)c1)NCCOC(=O)c1ccccc1 (stereo not given)	93
7	COC(=O)c1ccccc1O	106
8	CCN(CCCCOC(=O)c1ccc(OC)c(OC)c1)C(C)Cc1ccc(OC)cc1 (stereo not given)	95
9	O=C(O)c1cc(=O)c2ccccc2o1	102
10	CC(C)NNC(=O)c1ccncc1	102
11	CC(=O)Oc1ccc2c(C)cc(=O)oc2c1	99
12	O=C(O)C1Cc2ccccc2CN1 (stereo not given)	109
13	CC[C@]12CCCN3CCc4c(n(c5ccccc45)[C@](O)(C(=O)OC)C1)[C@@H]32	96
14	CCCCCCCCCCCCCCC[C@@H](O)[C@@H](N)CO	101
15	CCn1cc(C(=O)O)c(=O)c2cc(F)c(N3CCNC(C)C3)c(F)c21 (stereo not given)	97
16	CC(C)(C)NCC(O)COc1cccc2c1C[C@H](O)[C@H](O)C2 (stereo not given in full)	100
17	O=C1c2c(O)ccc(O)c2C(=O)c2c(NCCNCCO)ccc(NCCNCCO)c21	7.8*
18	CCCCN(CCCC)CCCOC(=O)c1ccc(N)cc1	100
19	OCC1CN(Cc2ccccc2)C(c2ccccc2)O1 (stereo not given)	100

# Not all compounds are listed; count on the stated rates, not on these rows.
